HPGD inh – blocks human HPGD enzyme activity. P15428. purified HPGD, NADH fluorescence kinetic, PGE2 substrate. Potency, µM, for inactives: at the highest dose activity change, negative = inhibition, most hits filed as inhibitors. hit rate 4.3% among 150,000. AID 894; active = well fitted inhibition curve with a large enough effect (not every such curve was filed as active); inconclusive = small, poorly fitted or top-dose-only effect, or another doubt; inactive = no such curve, though single readings can be large or run the other way;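 also: top concentration of the series not given in the record; plate controls included wells without enzyme; inactives centre near -10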
Target sequence (P15428 whole entry, looked up): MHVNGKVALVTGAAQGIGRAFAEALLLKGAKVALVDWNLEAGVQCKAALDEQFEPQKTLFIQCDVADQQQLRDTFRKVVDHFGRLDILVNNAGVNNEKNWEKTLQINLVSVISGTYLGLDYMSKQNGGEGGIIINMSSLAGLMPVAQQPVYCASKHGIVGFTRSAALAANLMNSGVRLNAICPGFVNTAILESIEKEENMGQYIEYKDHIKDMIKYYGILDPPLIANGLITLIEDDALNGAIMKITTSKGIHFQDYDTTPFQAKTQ
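20 nM HPGD preincubated 15 min at room temperature with compound in 50 mM Tris-HCl pH 8, 0.01% Tween 20. Started with 1 mM NAD+ and 30 uM prostaglandin E2; NADH fluorescence (360/450 nm) read 5 times over 30-s intervals, last minus first.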
* marks the source's active call; other numbers are inactive results; ? = inconclusive. % is scaled to controls: 0 for no effect and ±100 for the full control effect; potency is read from the fitted curve at half-maximal effect.

HPGD inh	SMILES
-1.0%	CC1CCCC(C)N1CCCNC(=O)Cn1cc2c(n1)CCCC2 (configuration not stated)
-21.6%	Cc1cccc(/C=C/C(=O)c2ccc(NC3=NCCCS3)cc2)c1
-11.8%	Cc1ccc(Nc2nnc(SCC(=O)Nc3cccc(S(=O)(=O)N4CCCCC4)c3)s2)cc1
?	COc1ccc2[nH]cc(C(=O)N3CCCCC3)c(=O)c2c1
-21.6%	COc1ccc(NC(=O)CN(C)S(=O)(=O)c2ccc3c(c2)OCCO3)c2ncccc12
-5.8%	Cc1nc2ccccn2c1C(=O)NCCCN1CCOCC1
-10.1%	C[C@@]1(C(NC(=O)c2cccs2)c2ccc(-c3ccccc3)cc2)C[C@H]1C1CCCCC1 (some centres not stated)
-25.6%	CSc1n[nH]c(NCc2ccccc2)n1
-22.4%	CC(C)=NNc1nc(-c2ccccc2)cs1
5.01µM*	CCOc1ccc2nc(SCC(=O)c3cccs3)sc2c1
?	CC(=O)OCC(=O)Nc1ccc(N=Nc2ccccc2)cc1
-6.3%	Nc1cc(S(=O)(=O)C(F)(F)F)ccc1C(=O)O
?	O=C(c1cccc(F)c1)N1CCC2(CC1)CN(c1ccccn1)C2
-4.1%	COc1ccc(NC(=O)CN(C)S(=O)(=O)c2ccc(Cl)cc2)cc1Cl
4.5%	O=C(Nc1nnc(C2CC2)s1)C1Cc2ccccc2CN1S(=O)(=O)c1ccccc1F (configuration not stated)
?	CCOC(=O)COc1cccc2c(=O)n(CC(=O)NCc3ccc4c(c3)OCO4)ccc12
2.5%	Cc1ccc(-n2nnnc2SCC(=O)NNC(=O)c2ccco2)cc1C
-10.5%	CNC(=O)Cc1csc2ccc(Cl)cc12
-9.4%	N#Cc1ccc(/C=N/N=C(N)N)cc1
14.1µM*	O=C(/C=C/c1ccccc1)n1cnnc1SC/C=C/c1ccccc1
?	CC1(C)CC(=O)c2cc(OCC(=O)O)ccc2O1
-19.3%	Cc1cc(C(=O)Nc2c(C)nn(Cc3c(Cl)cccc3Cl)c2C)no1
-11.8%	COc1cc(C(=O)Nc2ccc3c(c2)OCCO3)ccc1-n1cnnn1
-5.0%	O=C(C1CCN(S(=O)(=O)c2cccc3cccnc23)CC1)N1CCN(c2ccccn2)CC1
?	COC(=O)c1c(-c2ccccc2)csc1NC1=NS(=O)(=O)c2ccccc21

By substructure: those above containing a COOH group.
HPGD inh	SMILES
-6.3%	Nc1cc(S(=O)(=O)C(F)(F)F)ccc1C(=O)O
?	CC1(C)CC(=O)c2cc(OCC(=O)O)ccc2O1

Continued:
HPGD inh	SMILES
?	CCOC(=O)c1c(NC(=O)C(=O)N/N=C/c2ccccc2OC)sc2c1CCCCC2
-7.0%	COc1cc(C/C=C/c2ccccc2)c(OC)cc1O
-4.4%	COc1ccccc1OCCCCN1CCN(c2ccccc2OC)CC1
0.1%	CCOC(=O)c1c(C)[nH]c(C(=O)Nc2ccc3c(c2)OCO3)c1C
-0.3%	CCN1CCN(c2ncnc3c2oc2nc(C(C)C)c4c(c23)CCC4)CC1
?	Cc1ccc(C(=O)NC2CCCCC2)cc1
-10.6%	N#Cc1cn(Cc2ccccc2)c2ccccc12
-12.2%	COCC(=O)Nc1nc2n(n1)C(c1ccccc1Cl)CC(c1ccc(OC)cc1)N2 (configuration not stated)
?	O=C(/C=C/c1ccco1)c1ccc(NC(=O)C23CC4CC(CC(C4)C2)C3)cc1
-10.5%	COc1ccc(NC(=O)C(C)Oc2ccc(/C(C)=N\O)cc2)cc1 (configuration not stated)
-6.4%	O=C(CSc1nc2ccccc2o1)Nc1ccccc1N1CCCCCC1
25.1µM*	S=c1[nH]nc(COc2ccc3c(c2)OCO3)n1-c1ccccc1
-1.0%	O=C(CSc1nnc(-c2ccc(F)cc2)c2ccccc12)Nc1c(F)cccc1F
2.2%	COc1ccc(NS(=O)(=O)c2c(F)cc(F)c(Cl)c2F)cc1S(=O)(=O)N1CCCCC1
-24.9%	COc1ccc(-c2nsc3c(SCC(=O)Nc4cc(C)ccc4C)ncnc23)cc1
-15.4%	COc1ccc(CN2CNc3c(c(=O)n(C)c(=O)n3C)C2)cc1
1.8%	Cc1ccc(C(=O)Nc2ccccc2C(=O)NCc2ccccc2)cc1
-14.9%	O=C(CSc1nc2c(cnn2-c2ccc(F)cc2)c(=O)[nH]1)N1CCCCC1
-5.2%	CCCNc1nc(N2CCOCC2)nc(N2CCOCC2)n1
-11.1%	COc1ccc(C2=NOC3(CC(=O)N(c4ccc(Cl)cc4)C3=O)C2)c(OC)c1 (configuration not stated)
-10.9%	CCOCCCNC(=O)CSc1ccccc1
-8.7%	Cc1ccc(-c2nn(-c3ccccc3)cc2/C=C(\C#N)c2cccc(C#N)c2)o1
-10.6%	COc1cc2oc(=O)cc(C)c2c(OC)c1OC
-9.0%	O=C(NCc1ccco1)Nc1cccs1
-21.8%	C=CCn1c(SCC(=O)NCCCC)nc2scc(-c3ccco3)c2c1=O

HPGD inh: hit marks shown above
HPGD inh	SMILES
5.01µM*	CCOc1ccc2nc(SCC(=O)c3cccs3)sc2c1
14.1µM*	O=C(/C=C/c1ccccc1)n1cnnc1SC/C=C/c1ccccc1
25.1µM*	S=c1[nH]nc(COc2ccc3c(c2)OCO3)n1-c1ccccc1

The listing continues.
HPGD inh	SMILES
-6.7%	c1ccc2c(N3CCNCC3)nc(-c3ccoc3)nc2c1
-11.8%	CN(CCCC(=O)Nc1ccncc1)S(=O)(=O)c1ccc(Cl)cc1
-1.4%	CCOc1ccc(C)cc1S(=O)(=O)NC1CCCCC1
-12.6%	CCCCc1c(O)nc(SCC(=O)NCC2CCCO2)[nH]c1=O (configuration not stated)
-10.1%	COc1cccc(NC(=O)N2CCN(c3ccc(C(F)(F)F)cn3)CC2)c1
-5.8%	CC(=O)c1c(C)[nH]c(C(=O)COC(=O)CNS(=O)(=O)c2ccccc2)c1C
-11.7%	Cc1ccc(NC(=O)c2cc(S(=O)(=O)c3ccccc3)ccc2Cl)cc1
?	Cc1c(Cl)cccc1NC(=S)NCc1cccs1
-11.7%	CC1(C)O[C@H]2C[C@@H]3[C@H]4CCC5=CC(=O)C=C[C@]5(C)[C@@]4(F)[C@@H](O)C[C@]3(C)[C@]2(C(=O)CO)O1
-0.1%	S=C1NCCOCCOCCOCCNC(=S)NCCOCCOCCOCCN1
-10.8%	CCN(CC)CCP(=O)(c1ccccc1)c1ccccc1
8.91µM*	O=C(NCc1cn2ccsc2n1)c1c(F)cccc1Cl
-12.9%	COc1ccc(C2CC(c3ccc(Br)cc3)Nc3nc(N)nn32)cc1 (configuration not stated)
-14.3%	O=C1CC(c2ccccc2)Cc2nc(N3CCc4ccccc4C3)ncc21 (configuration not stated)
?	COC(=O)c1ccc(CSc2nnnn2Cc2ccccc2)cc1
2.9%	O=C(/C=C/c1ccc(F)cc1)NCCc1ccc2c(c1)OCCO2
-17.9%	COc1ccc(C(CNC(=O)CCOc2ccccc2)N(C)C)cc1 (configuration not stated)
?	Cc1ccc(Cn2c(=O)c3ccccc3n3c(SCC(=O)N4CCCCC4C)nnc23)cc1 (configuration not stated)
-24.8%	COc1cc2c(cc1NC(=O)C1CCCO1)oc1ccccc12 (configuration not stated)
-15.3%	CCOc1cc(NC(=S)NCc2ccco2)c(OCC)cc1NC(=O)CC(C)C
-6.9%	CCc1cc2cc(C(=O)Nc3ccc(F)cc3)sc2s1
-5.4%	Cc1cc(C)nc(NS(=O)(=O)c2ccc(NC(=O)C3(c4ccc([N+](=O)[O-])cc4)CCCC3)cc2)n1
-25.3%	CC(C)CC(=O)Nc1cccc(-c2cn3ccsc3n2)c1
-23.9%	CN(C)c1ccc(C2N3CC4(C)CN2CC(C)(C3)C4O)cc1 (configuration not stated)
-15.6%	COc1ccc(C(=O)Nc2nnc(-c3ccccc3)o2)cc1OC
?	C=CCn1c2ccccc2c2nnc(SCC(=O)OCN3C(=O)c4ccccc4C3=O)nc21
-5.9%	CCOc1ccccc1N1CCN(S(=O)(=O)c2ccc3c4c(cccc24)C(=O)N3)CC1
-25.8%	O=C(/C=C/c1cccc([N+](=O)[O-])c1)NCCSCc1ccc(Cl)cc1
0.6%	COc1ccc(C2NC(c3ccc(OC)c(OC)c3OC)C(C)C(=O)C2C)c(OC)c1OC (configuration not stated)
?	CCOCCCn1c(=S)[nH]c2cc(C(=O)N3CCN(C)CC3)ccc2c1=O
-5.0%	CCn1c(CSc2nc(C)cs2)nc2cc(S(=O)(=O)N(C)C)ccc21
1.4%	C=CCn1cnc2c(c1=O)c1nc3ccccc3nc1n2-c1ccc(C)cc1
-7.1%	O=C(NC(NC(=S)Nc1ccccc1O)C(Cl)(Cl)Cl)c1ccco1 (configuration not stated)
-8.9%	Cc1ccc(N2CCN(c3ccc(C)cc3)C2c2cccnc2)cc1
-16.0%	COCCN(CCOC)C(=O)CCn1c(=O)oc2ccccc21
-0.9%	CC(Sc1nnc(-c2ccc(Cl)cc2)n1C)C(N)=O (configuration not stated)
?	CSc1nnc(-c2ccc(S(=O)(=O)N3CCCC3)cc2)n1C
-2.4%	N/C(=N\S(=O)(=O)c1ccccc1)c1ccc([N+](=O)[O-])cc1
-16.5%	COc1ccc(OCC(O)Cn2ccnc2C)cc1 (configuration not stated)
-20.4%	CC(CNc1ccc([N+](=O)[O-])c2cccnc12)Nc1c([N+](=O)[O-])cc(C(F)(F)F)cc1[N+](=O)[O-] (configuration not stated)
-4.7%	COc1ccc(OC)c(S(=O)(=O)N2CCCc3ccccc32)c1
-28.4%	N#Cc1nc(Cc2cccc3ccccc23)oc1N1CCC(C(N)=O)CC1
-7.5%	CCCOC(=O)c1c(NC(=O)CCCn2nc([N+](=O)[O-])c(Cl)c2C)sc(C(=O)OC)c1C
0.1%	CC(=O)Nc1ccc(S(=O)(=O)NCCC(=O)Nc2ccc(C)c(Cl)c2)cc1
-22.8%	CSc1nc2c(c(=O)n1-c1ccc(C)cc1)SCC2
-5.4%	Cc1occc1C(=O)N/N=C/c1cccs1
-5.9%	CCC(=O)Nc1ccc(C(=O)CSc2nc3ccccc3[nH]2)cc1
-12.8%	C=CCSc1nc2c(cc1C#N)CCC2
?	COc1ccc(C2CC23N=C(c2ccccc2)OC3=O)cc1 (configuration not stated)
-10.8%	Cc1cccc2cc(CN(Cc3nnnn3Cc3ccccc3)C3CCCC3)c(=O)[nH]c12

Another view of 4 compounds above:
CCOCCCn1c(=S)[nH]c2cc(C(=O)N3CCN(C)CC3)ccc2c1=O
  HPGD inh: ?

Cc1cccc2cc(CN(Cc3nnnn3Cc3ccccc3)C3CCCC3)c(=O)[nH]c12
  HPGD inh: -10.8%

Cc1cc(C)nc(NS(=O)(=O)c2ccc(NC(=O)C3(c4ccc([N+](=O)[O-])cc4)CCCC3)cc2)n1
  HPGD inh: -5.4%

CCN(CC)CCP(=O)(c1ccccc1)c1ccccc1
  HPGD inh: -10.8%

(next part)
HPGD inh	SMILES
-24.1%	Cc1cccc(N=C2NC(=O)/C(=C/C=C/c3ccco3)S2)c1
-6.1%	Cc1ccc(Nc2cnn(C34CC5CC(CC(CC(=O)O)(C5)C3)C4)c(=O)c2Cl)cc1C
?	COc1ccccc1-c1cc(C(F)(F)F)nc(S(=O)(=O)CCCC(=O)NC(C)C)n1
-6.2%	CCCNC(=O)CN(c1ccc(F)cc1)S(=O)(=O)c1ccc2c(c1)OCCO2
-18.0%	COc1ccccc1NC(=O)CNC(=O)c1ccccc1
-26.8%	CCSc1nnc(-c2ccc(OC)cc2)o1
-19.4%	CCn1c(COc2cccc(C)c2)nnc1SCC(=O)Nc1cccc(C(=O)OC)c1
-14.4%	O=[N+]([O-])c1ccc(/C=C2\CCC(C3=CCCC3)=C2N2CCOCC2)cc1
20µM*	CCc1cccc(CC)c1NC(=O)CSc1nc2ccc(N3C(=O)C4C(C3=O)[C@H]3C=C[C@@H]4C3)cc2s1 (some centres not stated)
1.0%	CCCn1c(N)c(N2CCCCC2)c(=O)n(CC(=O)Nc2ccccc2)c1=O
2.5%	Cn1c(SCC(=O)Nc2nc3ccccc3s2)nnc1-c1ccccc1
-10.0%	COc1cccc(CNC(=O)c2cc3c(C)nc4ccccc4c3o2)c1
-0.4%	c1ccc(Nc2nc(N3CCOCC3)nc(N3CCOCC3)n2)cc1
-23.0%	O=C(Nc1nnc(C2CCCO2)s1)c1ccc(Br)cc1 (configuration not stated)
-7.3%	Cn1cc(Cl)c(C(=O)OCC(=O)Nc2ccccc2)n1
-5.2%	CC(=O)Oc1ccc(/C=c2\sc3ncnn3c2=O)cc1
?	Nc1c2c(nc3ccccc13)N(c1ccccc1)CC2
-2.6%	Cc1ccc(C)c(O)c1
-5.5%	COc1cc(C=O)ccc1OCc1cccc(Br)c1
-18.2%	O=C1OCc2cc(NS(=O)(=O)c3cccs3)ccc21
-5.2%	CC(=O)NCC(=O)OC(C)C(=O)Nc1ccc(C(C)=O)cc1 (configuration not stated)
2.3%	COc1cc(CNCCc2ccccc2F)ccc1OCc1ccc(Cl)nc1
-10.4%	CCN1C(=O)CSc2ccc(C(=O)NCc3ccc(OC)cc3)cc21
-14.8%	CCN1CCCC1CNC(=O)Cn1cnc2sc(C)c(S(=O)(=O)N3CCC(C)CC3)c2c1=O (configuration not stated)
-7.2%	CC(O)c1cccc(NC(=O)CCC(=O)O)c1 (configuration not stated)
-3.0%	N#Cc1ccc(CN2CCC3(CC2)CCN(C(=O)c2csnn2)CC3)cc1
-7.6%	COc1ccc(CN(CC(=O)NCc2ccco2)C(=O)CCC(=O)Nc2nccs2)cc1
-13.6%	COc1ccc(/C=N/NC(=O)c2ccc(-c3ccccc3)cc2)cc1O

High-throughput results as filed in PubChem.

Some of the compounds tested; the hit share may differ from the screen's.
